ugtP null kill = kills S. aureus RN4220 lacking UgtP; S. aureus RN4220 ugtP deletion, OD600 growth, 16 h; some inactives read as strong as hits; growth inhibition, % (concentration not given with the values); hit rate 0.54% among 330,000;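 active = z-score under -3 and OD600 up to 0.15 on both plates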;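 also: plate controls were untreated wells for no effect and antibiotic for full effect; wells of about 80 µL received 100 nL stock; the first replicate is given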
PrP UTR inh = suppresses PrP 5' UTR mRNA reporter expression | AID 488862 | hit rate 0.35% among 340,000 | cell-based PrP 5' UTR mRNA reporter, plate reader | inhibition, % (test concentration not listed);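 active = every replicate at 50% or more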;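 also: 0 = median of the neutral control wells; tested in H4 reporter cells; numbers are from one replicate; inactives centre near -14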
Mtb hypoxia inh = Mtb hypoxia fluorescent reporter inhibition | M. tuberculosis hypoxia-regulated fluorescent reporter, fluorescence | fluorescence inhibition, % (no concentration beside the values) | hit rate 0.1% among 300,000 | AID 1159583;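 active = 35 to 45% if threefold the growth effect, above 45% if 1.5-fold the growth effect; inactive = the rest, general growth blockers included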;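 also: wells of about 50 µL received 100 nL stock; 0% = vehicle wells and 100% = reference inhibitor wells; whole bacteria with a GFP reporter of the hypoxia response; strong numbers were not always called active; many hits fall short of the cut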
Sa RN4220 lethal = kills Staphylococcus aureus RN4220 | S. aureus RN4220 growth, OD600, 16 h | inhibition, % (no concentration beside the values) | hit rate 0.33% among 330,000;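 active = z-score of -3 or lower and OD600 up to 0.18 on both plates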;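 also: plate controls were untreated cells for no effect and reference antibiotic for full effect; stock transfer was 100 nL into about 80 µL; one replicate is shown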
Bead autofluor = counter-screen for toxin protease inhibitors: compound fluorescence. fluorescence intensity (no concentration beside the values). compound autofluorescence counterscreen, microsphere flow cytometry; active compounds read high. hit rate 3.1% among 360,000. AID 624483;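 active = at least 3 SD above the mean of all compounds, about 16000 in these data; inconclusive = too few beads counted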;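 also: 100 nL of 1 mM stock went into each well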
BJeLR viability = kills HRASV12-expressing BJeLR cells | BJeLR (HRASV12) viability, CellTiter-Glo ATP luminescence, 48 h; reference of the scale not given here | hit rate 0.17% among 300,000 | AID 1554 | inhibition, % (no concentration beside the values);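 active = replicate mean above 50%; inconclusive = above 50% but judged a plate artefact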;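 also: 50 nL library stock added to about 25 µL; numbers are from one replicate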
Mtb hypoxia inh growth = further read-out of Mtb hypoxia inh, marked with its call; growth inhibition, %; measured here: M. tuberculosis growth (absorbance);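 0% = vehicle and 100% = reference antibiotic; read after six days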
Active calls of the source: *; ? = inconclusive; / = no result given.

SMILES | ugtP null kill | PrP UTR inh | Mtb hypoxia inh | Mtb hypoxia inh growth | Sa RN4220 lethal | Bead autofluor | BJeLR viability
COc1ccc(CNC(=O)C(C)OC(=O)CON=C(C)c2ccc3c(c2)OCO3)cc1 (configuration not stated) | 3 | / | 6 | 3 | 2.2 | / | /
Cc1ccc2c(c1)N(C(=O)c1ccco1)C(C)(C)c1ssc(=S)c1-2 | -13 | / | 14 | 8 | -1.1 | 11097 | 0
CCCCOCCCNC(=O)c1cccs1 | -2 | -23 | 20 | 24 | 1.9 | 13122 | -2
CC(=O)c1ccc(NC(=O)C(C)OC(=O)CCN=C2NS(=O)(=O)c3ccccc32)cc1 (configuration not stated) | -3 | -22 | -4 | 1 | -3.7 | 4606 | -5
O=C(Nc1ccc2c(c1)CCC2)Nc1ccccc1Cl | 1 | -89 | 7 | 5 | 0.1 | 6689 | 5
O=C1CC(C(=O)O)C2(CCCC2)O1 (configuration not stated) | 1 | / | -3 | 2 | 4.3 | 11357 | 8
COC(=O)c1ccccc1NC(=O)CCCCCn1nnc2ccccc2c1=O | 8 | -11 | 10 | 3 | 5.2 | 3116 | -13
CN(CC(=O)NC1CCCCC1)S(=O)(=O)c1ccc2c(c1)c(=O)n(C)c(=O)n2C | 7 | -8 | -1 | 3 | 2.3 | 5490 | 4
CC(=O)c1c(C)[nH]c(C(=O)Nc2nccs2)c1C | -1 | -36 | 18 | 12 | 3.8 | 3541 | 1
CCOC(=O)c1ccc(NC(=O)CN(C)S(=O)(=O)c2ccc(OC)cc2)cc1 | -1 | -34 | 1 | 0 | 4.6 | 4031 | 2
O=C(CC(=O)NN=Cc1ccc(O)cc1)NN=Cc1ccc(O)cc1 | 7 | / | 11 | 12 | 3.4 | / | /
CC1=CCC2([N+](=O)[O-])CN(CC(=O)O)CC1([N+](=O)[O-])C2 (configuration not stated) | 1 | -6 | -1 | 9 | 5.1 | 2045 | 6
COc1ccc(CN(C(=O)c2ccc3c(c2)OCCO3)C(C(=O)NC2CCCCC2)c2ccc3ncccc3c2)cc1 (configuration not stated) | 11 | -19 | -3 | 7 | 0.6 | 9008 | 10
CCCS(=O)(=O)n1nc(-c2ccccc2)cc1N | 0 | -20 | 1 | 6 | -4.8 | 4452 | -9
CCCNc1nc(OCC(F)(F)F)nc(OCC(F)(F)F)n1 | 2 | 8 | 8 | 5 | -0.3 | 8253 | 2
COc1cc(CCCN2C(=O)C(=O)NC[C@@H]2C(C)O)cc(OC)c1OC (some centres not stated) | / | -1 | / | / | / | 3819 | -1
Cc1ccc(-c2csc(NC(=S)NC(=O)c3cccs3)n2)cc1 | -2 | -45 | 5 | 4 | 0.5 | 2114 | -5
CC(C)Cn1c(SC(C)C(=O)Nc2ccc(N3CCOCC3)cc2)nc2ccccc21 (configuration not stated) | 14 | -5 | -3 | 3 | -0.4 | 2328 | -14
Cc1ccc(OCCC(=O)N(CCC(C)C)c2c(N)n(Cc3ccccc3)c(=O)[nH]c2=O)cc1 | 6 | -10 | -3 | -8 | 0.4 | 6678 | 18
CCOC(=O)CN(C(=O)CNC(=O)c1cccs1)C(C(=O)NC1CCCCC1)c1cccnc1 (configuration not stated) | 3 | -7 | -3 | 1 | -3.0 | 2541 | -8

One compound at a time, as listed above.
O=C(Nc1ccc2c(c1)CCC2)Nc1ccccc1Cl across the screens: ugtP null kill: 1; PrP UTR inh: -89; Mtb hypoxia inh: 7; Mtb hypoxia inh growth: 5; Sa RN4220 lethal: 0.1; Bead autofluor: 6689; BJeLR viability: 5
CCCCOCCCNC(=O)c1cccs1 across the screens: ugtP null kill: -2; PrP UTR inh: -23; Mtb hypoxia inh: 20; Mtb hypoxia inh growth: 24; Sa RN4220 lethal: 1.9; Bead autofluor: 13122; BJeLR viability: -2
CCOC(=O)c1ccc(NC(=O)CN(C)S(=O)(=O)c2ccc(OC)cc2)cc1 across the screens: ugtP null kill: -1; PrP UTR inh: -34; Mtb hypoxia inh: 1; Mtb hypoxia inh growth: 0; Sa RN4220 lethal: 4.6; Bead autofluor: 4031; BJeLR viability: 2

Results in Mtb hypoxia inh and PrP UTR inh, for some of the entries so far:
compound | Mtb hypoxia inh | PrP UTR inh
CCCCOCCCNC(=O)c1cccs1 | 20 | -23
CC(=O)c1ccc(NC(=O)C(C)OC(=O)CCN=C2NS(=O)(=O)c3ccccc32)cc1 (configuration not stated) | -4 | -22

(continued)
SMILES | ugtP null kill | PrP UTR inh | Mtb hypoxia inh | Mtb hypoxia inh growth | Sa RN4220 lethal | Bead autofluor | BJeLR viability
O=C(CN(Cc1ccc(F)cc1)C(=O)c1csnn1)NC1CCCC1 | 4 | -5 | -3 | -5 | 0.8 | 4337 | 1
CN1CCN(C(=O)CCc2nc3ccccc3c(=O)[nH]2)CC1 | 3 | -12 | 0 | 5 | 3.1 | 2664 | -1
CNC(=S)N/N=C1\C2CN3CCN(C2)CC1(c1ccccc1)C3 | / | 3 | / | / | / | 2643 | -8
Clc1nc(NCCc2ccccc2)c2cn[nH]c2n1 | 10 | 27 | 0 | 0 | -4.7 | 3074 | /
Cc1cnc(C(=O)Nc2ccc(N3CCCCC3)cc2)cn1 | 3 | -73 | 20 | 5 | 4.0 | 3680 | 8
CNC(=O)N/N=C(\N)c1ccccn1 | / | -21 | / | / | / | 4167 | -16
Cc1nn(-c2ccccc2)c(C)c1[N+](=O)[O-] | 7 | -26 | 2 | 12 | 4.3 | 4563 | 7
CC12CCC(C(=NO)C1=O)C2(C)C (configuration not stated) | 3 | -15 | 6 | 11 | 4.7 | 3514 | /
CC1(C)CC(=O)C(C=Nc2ccc3c(c2)OCO3)=C(O)C1 | -3 | -21 | -8 | 4 | 1.6 | 12565 | -3
Cc1cc(C)n(-c2ccc(NN=C(C#N)C#N)cc2)n1 | 36 | -19 | 20 | 13 | 67 | 4628 | 5
CC(C)C(=O)Nc1cccc(C(=O)NCCc2ccc(S(N)(=O)=O)cc2)c1 | -3 | -25 | 9 | 11 | 5.6 | 20300* | 1
CCN(CC)C(=O)N[C@H]1C[C@@H]2c3cccc4[nH]cc(c34)C[C@H]2N(C)C1 | / | -10 | / | / | / | 5461 | -4
O=C(Cc1cccc(NC(=O)C2CCCN(C(=O)C3CC3)C2)c1)Nc1ccc(C(=O)N2CCCCC2)cc1 (configuration not stated) | 8 | -11 | 3 | 5 | 3.1 | 3593 | /
CC(C)CCNC(=O)C1CC(c2ccc(C(F)(F)F)cc2)=NO1 (configuration not stated) | -1 | 4 | / | / | 2.1 | 4024 | 11
Cc1csc(NC(=O)CN2CCCCCC2)n1 | 5 | -31 | 10 | 3 | 0.2 | 8109 | -8
COc1ccc(NC(=O)CCNC(=O)c2ccco2)cc1S(=O)(=O)N(C)C | 3 | -11 | -5 | 6 | 0.5 | 5344 | -9
Cc1ccc(C)c(N2CCN(C(=O)CCCCCn3c(=S)[nH]c4ccc(N5CCOCC5)cc4c3=O)CC2)c1 | / | -29 | / | / | / | 5467 | 8
CCN(CC(=O)Nc1c(F)cccc1F)C(=O)/C=C/c1ccc(C)o1 | 1 | -31 | -6 | 7 | -2.2 | 4543 | -13
Cc1ccc(C(=O)NCc2ccco2)cc1S(=O)(=O)N1CCCCC1 | 11 | -14 | 10 | 5 | 5.2 | 7210 | -9
COc1cccc(NC(=O)N2CCCC2)c1 | 11 | -37 | 3 | 5 | 3.0 | 2238 | 0
CNS(=O)(=O)c1c(C)cc(C)c(N(C)S(=O)(=O)c2ccccc2)c1C | -4 | -2 | 3 | -1 | 7.9 | 3479 | 7
CCOc1nc(NC(=O)NS(=O)(=O)c2ccccc2F)nc(-c2ccccc2)n1 | -6 | -23 | -8 | 17 | 0.1 | 4141 | /
Cc1cc([P+](=O)O)c(C)n1-c1ccc(Br)cc1 | -7 | -29 | 3 | -3 | 4.6 | 9574 | 3
O=C(CN1CCN(c2ccccc2O)CC1)Nc1ccc2c(c1)OCCCO2 | 1 | -23 | 11 | 4 | 3.3 | 7651 | /
COC(=O)c1ccc(/C=C2/SC(=S)N(CCC(=O)NCCCN3CCOCC3)C2=O)cc1 | 8 | -18 | -8 | 12 | 3.1 | 5333 | -10
Cc1cc(NC(=O)CSCC(=O)Nc2nc3c(C)cccc3s2)no1 | -9 | -45 | 8 | -1 | 4.8 | ? | 8
COCC(=O)Nc1cc(=O)n(C)c(=O)n1C | 12 | -15 | -1 | 7 | 11 | 4448 | 3
O=S(=O)(NCCSc1ccccn1)c1ccc(Br)cc1 | 3 | -21 | 5 | 0 | 3.6 | 4999 | 13
Cc1ccc(S(=O)(=O)CCc2nnc(NC(=O)c3cccs3)s2)cc1 | 8 | -11 | 4 | 1 | 5.1 | 2547 | -5
Cc1ccc(S(=O)(=O)N2CCCN(c3nc4cc(C)ccc4cc3C#N)CC2)cc1 | -15 | 3 | -5 | 4 | 19 | 13376 | 7
O=[N+]([O-])c1cccc(C2CC(c3ccccc3)=NN2c2ccccc2)c1 (configuration not stated) | 1 | -11 | 16 | 12 | -16 | 3915 | -7
c1ccc(-n2cnc3cc(NCc4cccs4)ccc32)cc1 | -5 | 31 | 8 | 20 | 13 | 23254* | -3
COc1ccccc1/C=N/Nc1cc(N(C)C)nc(N(C)C)n1 | / | -2 | / | / | / | 2568 | 0
NC(=O)CNC1CC(=O)N(CCc2ccccc2)C1=O (configuration not stated) | -7 | -30 | 5 | 14 | -1.7 | 23483* | -8
O=C(NC1CCCc2ccccc21)c1ccc(Br)cc1 (configuration not stated) | 6 | -5 | / | / | 3.7 | 2337 | 12
CNS(=O)(=O)c1ccc(NC(=O)c2ccc(Cl)cc2Cl)cc1 | 3 | -38 | -1 | 14 | 1.5 | 2101 | -4
CC(=O)c1ccc(OCCCC(=O)Nc2cccc(S(=O)(=O)N(C)C)c2)cc1 | 6 | -5 | -3 | -5 | 2.7 | 2016 | -13
N#Cc1ccccc1NC(=O)C1SC(=Nc2ccccc2)C(C(=O)Nc2ccc(Cl)cc2)=C1N (configuration not stated) | / | -13 | / | / | / | 4487 | 0
COC(=O)C1=C(c2cccc(OC)c2OC)CC2CCC1N2C(=O)NCCNC(C)=O (configuration not stated) | 4 | / | 22 | 7 | 2.8 | / | /
CCN(CC)c1ccc2oc(=O)c(C)nc2c1 | 14 | -7 | 5 | 9 | 2.4 | 10175 | -27
COc1ccc(CC(=O)OCC(=O)NC2CCCC(C)C2C)cc1OC (configuration not stated) | 0 | -33 | 15 | 13 | 4.6 | 3420 | /
COc1ccc(CNC(=O)C2(CC(=O)NC(C)(C)C)CCCC2)cc1 | 4 | -10 | -13 | 1 | 4.7 | 4064 | 9
O=C(NCCc1ccco1)C(=O)NCCC1CCCCN1S(=O)(=O)c1ccccc1 (configuration not stated) | 6 | -4 | 11 | 5 | 3.9 | ? | -4
CCOC(=O)c1c(NC(=O)CSc2nnc(C)o2)sc(C)c1C | 3 | -9 | 6 | 7 | 6.0 | 4754 | -1
CCOCC(=O)Nc1cccc(OC)c1 | -2 | -27 | / | / | -0.9 | 4691 | /
CCO[C@H]1OC(C(=O)N2CCN(C)CC2)=C[C@@H](c2csc3ccccc23)[C@@H]1CCCO | / | -27 | / | / | / | 4208 | -5
Cc1ccc(S(=O)(=O)NN=C2CCN(Cc3ccccc3)CC2)cc1 | 1 | -24 | 4 | 4 | 1.5 | 2528 | -3
COc1ccc(-c2cc(C(=O)NN=C(C)c3cccnc3)c3ccccc3n2)c(OC)c1 | 6 | / | 0 | -2 | 2.8 | / | /
CCOC(=O)CN1C(=O)S/C(=C\c2ccc(-c3ccc(C(=O)O)c(Cl)c3)o2)C1=O | 11 | -18 | -3 | 6 | 6.3 | 3093 | 2
COc1ccc(OCC(=O)NNC(=S)NC(=O)C2CCCCC2)cc1 | / | 0 | / | / | / | 4746 | -4
O=C(CCN1C(=O)c2ccccc2C1=O)OCn1nnc2ccccc2c1=O | -8 | -16 | 2 | 4 | 0.4 | 4162 | 9
CC(C)(C)OC(=O)N1CCC(c2c(C(=O)O)cnn2-c2ccccc2Cl)CC1 | -5 | -53 | 6 | -2 | 5.8 | 11207 | -2
Cc1ccoc1C(=O)Nc1cccc2ccccc12 | -3 | -27 | -10 | -8 | 4.5 | 3483 | -1
O=C(CCC(=O)N(CC(=O)NC1CCCC1)Cc1ccccc1)Nc1nccs1 | 1 | -6 | 1 | 5 | 2.8 | 3729 | 0
CC(=NNC(=O)c1ccc([N+](=O)[O-])cc1)C(=NO)C(=O)Nc1ccccc1 | 7 | / | 1 | 3 | 1.5 | / | /

Screening data: PubChem BioAssay, several laboratories
